# From PubChem BioAssay
# GIV Gai3 FP: inhibitors of GIV GBA-motif binding to rat Galpha-i3 | Galpha-i3/FITC-GIV peptide fluorescence polarization, 90 min; hits give low values; scaled: aluminum fluoride 0%, vehicle 100% | percent of control (FP), % (concentration not given with the values) | actives 0.42% (n = 210,000) | AID 1224905;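 active = replicate mean at 85% of control or lower, very high polarization wells dropped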;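 note: wells of about 15 µL received 100 nL stock; the first replicate is given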
# Target sequence (P08753 whole entry, looked up): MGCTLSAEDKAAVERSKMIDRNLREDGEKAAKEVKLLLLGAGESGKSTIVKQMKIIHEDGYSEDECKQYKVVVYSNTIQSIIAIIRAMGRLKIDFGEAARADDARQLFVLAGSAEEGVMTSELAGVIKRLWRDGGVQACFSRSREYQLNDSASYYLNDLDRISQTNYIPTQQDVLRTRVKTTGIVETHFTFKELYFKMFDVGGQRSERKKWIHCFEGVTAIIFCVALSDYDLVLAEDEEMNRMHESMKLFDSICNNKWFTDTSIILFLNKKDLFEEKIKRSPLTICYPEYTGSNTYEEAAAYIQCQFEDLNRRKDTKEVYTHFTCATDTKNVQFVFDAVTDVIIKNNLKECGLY
# Numbers without * were called inactive. Some of the compounds tested; the hit share may differ from the screen's.
SMILES,GIV Gai3 FP
CCCCC1(Nc2ccc(C)cc2)C(=O)N(c2ccccc2)N(c2ccccc2)C1=O,119.3
O=C(c1cc(NS(=O)(=O)c2ccc(Br)cc2)cnc1N1CCNCC1)N1CCCC1,103.0
Cc1cc(C)c(C)c(C2=NON3N(C(=O)c4ccc(-c5ccccc5)cc4)c4ccccc4N23)c1C,105.2
COc1ccc(Nc2nc(-c3nnn(-c4cc(F)ccc4F)c3C)ns2)cc1,104.8
COc1ccc(OC)c(NC(=O)c2cc3nc(-c4ccc5c(c4)OCO5)cc(C(F)(F)F)n3n2)c1,115.3
CCOC(=O)C1=NN(c2cccc(Cl)c2)C2(S1)c1ccccc1C(c1ccc(CC)cc1)=NN2c1ccccc1 (stereo not given),104.7
CC(C)c1cc(C2CCCN2Cc2cn[nH]c2-c2cccc(Br)c2)on1 (stereo not given),102.0
COc1ccccc1NC(=O)c1cccc(N2CCCN(Cc3ccccc3C)C2=O)c1,105.4
COc1ccc(CN2CCCC2c2c(C)noc2C)c(OC)c1 (stereo not given),109.9
COc1ccc2cc(C(=O)Nc3ccc(OC)c(OC)c3)c(=Nc3ccc(C(=O)O)cc3)oc2c1,108.6
O=C(Nc1cccc(C(=O)N2CCCC2)c1)c1nsc2ccccc12,102.2
CCCN(C)S(=O)(=O)c1cc(-c2nc(C)cs2)n(CC(=O)N2CCCCC2)c1,103.3
O=C(CN1C2=NCCCN2c2ccccc21)c1cccc(Br)c1,107.4
COc1cccc(Oc2ccnc(-c3cccc(C(=O)NC4CCCc5ccccc54)c3)n2)c1 (stereo not given),106.6
Nc1ccccc1-n1c(-c2ccccc2)c2c(c1-c1ccc(Cl)cc1)C(=O)c1ccccc1C2=O,109.4
O=[N+]([O-])c1ccc(-c2nc(NC3CCCCC3)c3ccccc3n2)cc1,110.2
Cc1cc(-c2[nH]c3c(c2-c2cc(C)sc2C)c(=O)[nH]c(=O)n3C)c(C)s1,99.2
COc1ccc2nc(NC(=O)COC(=O)CC(NC(=O)c3ccccc3)c3ccccc3)sc2c1 (stereo not given),104.8
CN1C(=O)c2ccc(NC(=O)CCc3nc(CSc4n[nH]c(-c5ccccc5)n4)no3)cc2C1=O,101.0
CC(CC(=O)N1CCc2ccccc2C1)S(=O)(=O)c1ccc2c(c1)NC(=O)CCS2 (stereo not given),105.8
CC(C)NC(=O)c1ccc(-c2nc3cc(NS(=O)(=O)c4ccc(F)c(F)c4)ccc3n2C)cc1,102.5
Cc1ccccc1Cn1nc2c(S(=O)(=O)N3CCOCC3)cccn2c1=O,104.0
O=C(c1cc2ccc(Br)cc2oc1=O)N1CCSC1c1cccc([N+](=O)[O-])c1 (stereo not given),108.5
O=C(N/N=C/c1ccc(Sc2nnc(-c3ccccc3)n2-c2ccccc2)o1)c1ccncc1,104.3
COc1ccc(O)c(C2SCc3cc(C)c(C)cc3CS2)c1,113.8
COc1cc(Br)c(/C=C2\SC(NC(C)=O)=NC2=O)cc1OC,120.1
Cc1csc(-c2cc(S(=O)(=O)N(C)c3ccc(C)c(C)c3)c(C)s2)n1,179.8
CCCS(=O)(=O)c1c(S(=O)(=O)CCC)c2c3ccccc3ccn2c1C(=O)N/N=C/C(C)C,112.8
CN1C=C(c2ccc3ccccc3n2)C(C#N)c2ccccc21 (stereo not given),106.7
O=C(c1cccc(F)c1)N1CCN(c2ccc(NCc3ccccc3)nn2)CC1,97.5
Cc1ccc(-c2cc(-c3ccccc3)nc(SCC(O)CN3CCOCC3)c2C#N)cc1 (stereo not given),104.8
COc1ccc(N2CCN(C(=O)CSc3nc4[nH]ncc4c(=O)n3-c3cccc(C(F)(F)F)c3)CC2)cc1,106.5
O=C1Nc2cc(S(=O)(=O)NCCC3=CCCCC3)ccc2SC1C(=O)N1CCCC1 (stereo not given),106.7
CCOc1ccc(-n2c(=S)sc3c2nc(SCC(=O)Nc2cccc(OC)c2)n2c4ccccc4nc32)cc1,103.0
Brc1ccc(-c2nc(-c3ccc(Br)cc3)c(-c3ccccc3Br)[nH]2)cc1,111.8
Cc1nnc(-c2ccc(S(=O)(=O)NC3CCCCC3)o2)o1,103.3
COc1cc(C2CC(=O)C3=C(C2)Nc2ccccc2N(C(=O)CCC(=O)O)C3c2cccc(F)c2)cc(OC)c1OC (stereo not given),101.9
CC(=O)c1c(C)oc2ccc(N(C(=O)c3ccc([N+](=O)[O-])cc3)S(=O)(=O)c3ccc(C)cc3)cc12,108.0
Cc1cccc2sc(NC(=O)c3sc4ncn(Cc5cccc(F)c5)c(=O)c4c3C)nc12,101.6
C=CCN(CC=C)CC(O)Cn1c2ccc(Cl)cc2c2cc(Cl)ccc21 (stereo not given),120.1

# Rewritten bar-delimited: entries from further up
mol | GIV Gai3 FP
Cc1nnc(-c2ccc(S(=O)(=O)NC3CCCCC3)o2)o1 | 103.3
Brc1ccc(-c2nc(-c3ccc(Br)cc3)c(-c3ccccc3Br)[nH]2)cc1 | 111.8

# (next part)
SMILES,GIV Gai3 FP
COc1ccccc1C(=O)N/C(=C/c1ccc2c(c1)OCO2)C(=O)Nc1ccc(C(=O)O)cc1,108.2
Cc1cc(N(C)C)nc(N2CCN(S(C)(=O)=O)CC2)n1,102.5
Cc1ccccc1Cn1c(=O)c2c(ncn2C)n(C)c1=O,128.6
O=C1c2ccccc2NC2(C(=O)Nc3ccc(Br)cc32)N1c1ccccc1 (stereo not given),106.2
O=C1Nc2ccccc2Oc2ccc(S(=O)(=O)N3CCc4ccccc4C3)cc21,110.9
Cc1cc(C)c2c(c1)-c1c(ssc1=S)C(C)(C)N2C(=O)C1CC1,106.5
O=C(NCc1ccccc1Cl)c1ccc2c(c1)nc1n2CCOC1,106.9
COc1ccc2nc(N3CCN(C(=O)C4=COCCO4)CC3)sc2c1,99.4
O=C(CCc1nc(CS(=O)(=O)c2ccccc2)no1)NC1CC1,100.7
CN(C)c1ccc(/C=C2/C(=O)NC(=O)N(c3ccccc3)C2=O)cc1Br,110.4
COc1ccccc1N1CCN(c2ncnc3c2cnn3-c2ccc(C)cc2C)CC1,105.6
O=C(Nc1ccc(O)cc1)c1nc(-n2cnnc2)ccc1Br,100.3
CC1CCc2c(sc(NC(=O)c3nc(-n4cnnc4)ccc3Br)c2C#N)C1 (stereo not given),110.3
CC(=O)N1CCC(C(=O)NCc2ccccc2)(N(Cc2ccccc2F)C(=O)c2ccc(C)cc2)CC1,105.9
Nc1ccc(SCc2nnc(-c3ccc4c(c3)OCO4)o2)cc1,95.9
O=S(=O)(c1cc(-c2noc(C3CCC3)n2)cs1)N1CCC2(CC1)OCCO2,98.5
COc1ccc(CNC(=O)Cn2c(=O)n3nc(-c4ccccc4)nc3c3ccccc32)cc1OC,100.9
COc1ccc(Cl)cc1NS(=O)(=O)c1cc(-c2nc(C)c(C)s2)sc1C,94.2
Cc1cc(C(F)(F)F)c2c(N)c(C(=O)Nc3cccc4ccccc34)sc2n1,115.0
COc1ccccc1N1CCN(S(=O)(=O)c2cc(C(=O)Nc3ccc(Cl)c(Cl)c3)ccc2F)CC1,103.9

# Reformatted with bars between the fields: entries from further up
canonical_smiles | GIV Gai3 FP
O=S(=O)(c1cc(-c2noc(C3CCC3)n2)cs1)N1CCC2(CC1)OCCO2 | 98.5
COc1ccc(CNC(=O)Cn2c(=O)n3nc(-c4ccccc4)nc3c3ccccc32)cc1OC | 100.9

# 5 of the entries above in order of their number in GIV Gai3 FP, falling.
SMILES,GIV Gai3 FP
Cc1cc(C(F)(F)F)c2c(N)c(C(=O)Nc3cccc4ccccc34)sc2n1,115.0
CC1CCc2c(sc(NC(=O)c3nc(-n4cnnc4)ccc3Br)c2C#N)C1 (stereo not given),110.3
COc1ccccc1N1CCN(S(=O)(=O)c2cc(C(=O)Nc3ccc(Cl)c(Cl)c3)ccc2F)CC1,103.9
O=S(=O)(c1cc(-c2noc(C3CCC3)n2)cs1)N1CCC2(CC1)OCCO2,98.5
Nc1ccc(SCc2nnc(-c3ccc4c(c3)OCO4)o2)cc1,95.9

# Additional records
SMILES,GIV Gai3 FP
O=c1cc(CSc2nc(NCCc3ccccc3)c3ccccc3n2)nc2ccccn12,107.2
CC1CCCN(Cc2nc(-c3ccc(N4CCSCC4)nc3)no2)C1 (stereo not given),98.7
Cc1nc(-c2ccc(Cl)cc2)sc1-c1cc(=O)[nH]c(SCC(=O)Nc2ccccc2)n1,102.5
O=c1oc2ccc3ccccc3c2cc1C1=Nn2c(nnc2-c2ccccc2)SC1,108.7
CCCCc1ccc(NC(=O)Cn2nc3c(Sc4ccccc4)nccn3c2=O)cc1,102.7
CCc1ccc(NC(=O)C2CCCN(c3nccc4sc(C)cc34)C2)cc1 (stereo not given),103.5
COc1cccc2cc(-c3csc(NC(=O)CCC(=O)N4CCc5ccccc5C4)n3)c(=O)oc12,114.4
CCOc1ccc(N(C)S(=O)(=O)c2ccc3[nH]cc(C(=O)NCCC4=CCCCC4)c(=O)c3c2)cc1,106.8
CC(C)c1cc(C2CCCN2Cc2cc(Br)ccc2O)on1 (stereo not given),100.4
CC(C)(C)c1ccc(S(=O)(=O)NCc2nc3cccnc3n2Cc2ccccc2)cc1,111.6
Cc1noc(C)c1C1CCCN1C(=O)c1ccnn1C (stereo not given),94.8
CCOC(=O)c1ccc(N2C(=O)C(=O)/C(=C(/O)c3ccc(OC)cc3)C2c2ccc(C)cc2)cc1 (stereo not given),108.1
CCc1onc(C)c1C1CCCN1C(=O)c1nn(C)cc1Cl (stereo not given),94.7
CC1=C(c2ccccc2)S(=O)(=O)N=C1N1CCCN(C(=O)C(C)(C)C)CC1,100.2
CCCS(=O)(=O)c1c(S(=O)(=O)CCC)c2ccccn2c1C(=O)N/N=C/c1ccc(N(C)C)cc1,108.6
CCCCCSc1nnc2c3ccccc3n(C)c2n1,99.1
C=CCNC(=O)C1CCCN(C(=O)c2ccc(NS(=O)(=O)c3ccc(F)cc3)cc2)C1 (stereo not given),104.6
CS(=O)(=O)n1c(SCc2ccc(C(F)(F)F)cc2)nc2ccccc21,102.5
Cc1ccc(C(=O)NCc2nc(-c3ccc(-c4nc(C)no4)cc3)no2)cc1,99.9
COc1cccc2cc(-c3csc(NC(=O)CCC(=O)NC4CCC(C)CC4)n3)c(=O)oc12 (stereo not given),106.9
CC(=O)N1CCc2c(sc(NC(=O)c3ccc4c(c3)OCCO4)c2-c2nc3ccccc3s2)C1,111.6
COCCCNC(=O)c1sc2ncnc(N3CCN(c4ccccn4)CC3)c2c1C,101.6
CCOC(=O)c1c(NC(=O)COc2ccc(Cl)cc2Cl)sc(C(=O)N2CCCCC2)c1C,103.7
O=C(NCc1c(-c2ccccc2)nc2n1CCS2)c1cccnc1,100.5
CCNc1cc(C)nc(Nc2ccc(NS(=O)(=O)c3ccc(Br)cc3)cc2)n1,103.7
C=CCn1c(SCC(=O)c2ccc(Br)cc2)nc2cc(C(=O)N3CCC(C(N)=O)CC3)ccc2c1=O,105.5
COC(=O)C1=C(C)Nc2[nH]c(=S)[nH]c(=O)c2C1c1ccccc1F (stereo not given),106.6
CCOC(=O)c1c(NC(=S)NC2CCCCC2)sc2c1CC(C)(C)OC2,114.2
CN(c1ccc(Cl)cc1)S(=O)(=O)c1ccc2[nH]cc(C(=O)N3CCc4ccccc4C3)c(=O)c2c1,112.7
COc1ccc(CN2CCCn3nc(-c4ccc(OC)c(OC)c4)cc3C2)c(OC)c1,98.8
O=[N+]([O-])c1ccc(-c2ccc(-c3[nH]c(-c4cccc([N+](=O)[O-])c4)nc3-c3ccccc3)cc2)cc1,104.0
CC(=O)N1c2ccc(C)cc2-c2ccccc2S1(=O)=O,107.3
O=C(CCc1nc(CS(=O)(=O)c2ccccc2)no1)NCCCN1CCOCC1,108.5
O=S(=O)(c1ccc2c(c1)OCCO2)N1CCn2cccc2C1c1ccc(Br)cc1 (stereo not given),106.6
Cc1nc(OCC(=O)Nc2ccc(F)cc2F)c2ccccc2n1,97.9
O=c1c(S(=O)(=O)N2CCCC2)cccn1Cc1ccccc1Cl,110.5
Cc1ccc(C23CC4CC(CC(C(=O)Nc5cc(Cl)ccc5Cl)(C4)C2)C3)cc1,106.2
CCOC(=O)C1=C(C)NC2=C(C(=O)C(C(=O)OCC)C(c3ccc(OC)cc3)C2)C1c1ccc(OCC)cc1 (stereo not given),99.8
Cc1cc(Cl)ccc1NS(=O)(=O)c1ccc2onc(C(=O)N3CCCC3)c2c1,100.4
CCOC(=O)C1(O)CC(C)=NN1C(=O)c1ccc(-c2ccccc2)cc1 (stereo not given),110.3
Cc1ccc(-c2nc(CSCC(=O)NC3CCCC3)no2)cc1,101.4
COc1ccc(CN2CCCC2c2cc(C(C)C)on2)cc1Br (stereo not given),112.1
c1ccc(Cn2cnnc2C2CCCN(Cc3ccoc3)C2)cc1 (stereo not given),105.6
CC1(C)CC(=O)C2=C(C1)NC1=C(C(=O)CC(C)(C)C1)C2c1ccc(Br)cc1,102.7
COC(=O)C12CC3CC(CC(C3)C1)C2,106.3
CCc1onc(C)c1C1CCCN1S(=O)(=O)c1ccc(Br)s1 (stereo not given),102.5
CCOC(=O)CSc1nnc2c3ccccc3nc(-c3ccccc3)n12,100.2
Cc1ccc(C2/C(=C(\O)c3ccc(Cl)cc3)C(=O)C(=O)N2CCCN2CCOCC2)cc1 (stereo not given),111.2
O=[N+]([O-])c1ccc(-c2nc(NCc3ccccc3)c3ccccc3n2)cc1,106.4
Cc1ccc(N2C(=O)C3C4c5ccccc5C(C=O)(c5ccccc54)C3C2=O)cc1Cl (stereo not given),107.9

# Molecules from the list above containing a cyano group, in the order listed:
SMILES,GIV Gai3 FP
CN1C=C(c2ccc3ccccc3n2)C(C#N)c2ccccc21 (stereo not given),106.7
Cc1ccc(-c2cc(-c3ccccc3)nc(SCC(O)CN3CCOCC3)c2C#N)cc1 (stereo not given),104.8
CC1CCc2c(sc(NC(=O)c3nc(-n4cnnc4)ccc3Br)c2C#N)C1 (stereo not given),110.3

# Other compounds
SMILES,GIV Gai3 FP
Cc1cc(N)nn1C(=O)CSc1nc(NC2CCCCC2)c2ccccc2n1,106.6
O=C(Nc1ccc(N2CCC(c3ccccc3)C2)c(C(=O)O)c1)c1cccc(Cl)c1 (stereo not given),103.6
CCOC(=O)C1CCN(C(=O)c2cc(NC(=O)c3ccc(Cl)cc3)cnc2N2CCNCC2)CC1,93.4
Cc1ccc(Cn2cc(C(=O)Nc3ccc(C)cc3C)ccc2=O)cc1,105.4
CCN(CC)C(=O)c1ccc(-c2nc3cc(NS(=O)(=O)c4cc(C)ccc4C)ccc3n2C)cc1,99.1
Cc1ccc(-c2cn3cccnc3n2)cc1NC(=O)CC1CCCCC1,101.8
